S aureus helic: S. aureus DNA helicase inhibition; inhibition, %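 (tested at about 80 µM)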; AID 485395; 120,000 compounds, 0.05% hits; purified S. aureus helicase, fluorescence unwinding assay; about half of the hits fall short of the stated cut;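 active = both duplicates at 50% or more, or one of them with a favoured structure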;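 note: 0% = mean of negative control wells and 100% = mean of positive control wells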
MgrA DNA FP: modulators of Staphylococcus aureus MgrA DNA binding; 84,000 compounds, 0.13% hits; AID 602314; inhibition, %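 (about 10 µg/mL by stock and volumes)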; fluorescence polarization;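 active = above 50% in either of two replicates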;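 note: 0% = protein plus DNA without compound and 100% = DNA alone without protein; higher means less MgrA bound to DNA so lower polarization; one replicate is shown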
* hit, by the source's call; . = not tested or not shown; & = joins results of further samples.

S aureus helic	MgrA DNA FP	canonical_smiles
11.0	-1.5	Cc1ccc(Cl)cc1NC(=O)Cc1nn(C)c(=O)c2ccccc12
-33.0	1.5	COC(=O)c1ccc(N=C/C(Br)=C/c2ccccc2)cc1
10.0	.	Cc1ccc(-c2nc(CS(=O)(=O)CC(=O)N3CCCC3)c(C)o2)cc1
18.0	.	CN(C)C(=O)C1Cc2ccccc2CN1S(=O)(=O)c1cccs1 (stereo not drawn)
2.0	1.2	Nc1nn(-c2ccccc2)nc1NC=O
-20.0	.	Cc1cc(N2CCOCC2)ccc1/C=C1\NC(=O)N(Cc2ccccc2F)C1=O
14.0	.	Fc1ccc(-c2cc(-c3ccccc3)nc3ncnn23)cc1
-8.0	.	NS(=O)(=O)c1ccc(CCNc2cc(C(=O)N3CCOCC3)c3ccccc3n2)cc1
-19.0	.	CC1c2cccn2CCN1C(=O)Nc1ccccc1 (stereo not drawn)
-7.0	.	CC1CCCCN1C(=O)C1=CC(c2ccco2)=NS(=O)(=O)N1C (stereo not drawn)
-19.0	-0.7	CC(Oc1ccc(Cl)cc1)C(=O)OCC(=O)Nc1ccc(F)cc1F (stereo not drawn)
6.0	-0.5	CSc1ncc(Cl)c(C(=O)Nc2ccc(C)cc2)n1
-3.0	.	Cc1cc(C)c2c(=O)[nH]c(SCC(=O)NC34CC5CC(CC(C5)C3)C4)nc2n1
-5.0	.	N#CC(C(=O)CC12CC3CC(CC(C3)C1)C2)c1nc2ccccc2[nH]1 (stereo not drawn)
17.0	.	Cc1ccccc1Nc1ncnc2nc[nH]c12
.	3.2	COC(=O)c1ccc(NC(=O)CSc2nnc(C)c3ccccc23)cc1
-14.0	.	COc1ccccc1-c1c(C)c(CC(C)C)nc(N)c1C#N
6.0	1.1	CC(=O)N(Cc1ccc2c(c1)OCO2)C1CC(=O)N(c2ccccc2)C1=O (stereo not drawn)
9.0	.	Cn1c(SCc2ccccc2C#N)nnc1C(F)(F)F
-11.0	-0.3	O=C(OC(C(=O)c1ccccc1)c1ccccc1)c1cnc(Cl)c(Cl)c1 (stereo not drawn)
-27.0	.	CCCOc1ccc(NC(=O)CC2SC(N)=NC2=O)cc1 (stereo not drawn)
.	-2.7	COc1cc(Br)c(CNc2ccccc2)cc1OC
11.0	.	O=c1cc(-c2ccccc2)nc(SCc2ccccn2)[nH]1
.	0.3	C[C@@H](O)[C@H]1C(=O)N2C(C(=O)O)=C(SCCN=CN)C[C@H]12
4.0	.	N#CCCN/N=C/c1ccncc1
-13.0	.	CCC1(C)NC(=O)N(/N=C/c2cc(C)n(CC(C)C)c2C)C1=O (stereo not drawn)
0.0	-8.8	c1ccc(C(NCc2cccs2)c2ccccc2)cc1
-25.0	.	CCCN(CCC)C(=O)Cn1c(=O)n(CCCCC(=O)Nc2ccc(OC)cc2)c(=O)c2ccccc21
.	-0.8	COc1ccc(OC)c(NC(=O)c2cc3cc(Br)ccc3oc2=O)c1
7.0	0.8	Cc1nnc(SCC(=O)N2CCCCC2)o1
-2.0	1.4	CC1CCN(C(=O)c2scc3c2CCCC3)CC1
4.0	-1.8	COc1ccc(C(=O)Nc2ccc(Cl)cc2)cc1S(=O)(=O)Nc1ccc(Cl)cc1
3.0	5.0	Cc1ccc(SCC(=O)NC2CCCCC2C)cc1 (stereo not drawn)
28.0	.	Cc1cc(-c2nnc(-c3cccc(Cl)c3)o2)no1
14.0	-0.3	CC(=O)Nc1ccc(-c2nnc3n(Cc4ccccc4Cl)c(=O)c4ccccc4n23)cc1
-12.0	-2.2	CC1CC(C)CN(C(=O)c2cc3c(s2)CCCC3)C1 (stereo not drawn)
-15.0	.	O=C(CSc1nccn1-c1ccccc1)NO
5.0	-0.1	COc1cccc(-n2c(SCC(=O)NC3CCCC3)nc3c(c2=O)SCC3)c1
4.0	-0.1	O=C(O)c1c(CNC2CCCc3ccccc32)c2ccccc2n1Cc1ccc(F)cc1Cl (stereo not drawn)
-10.0	.	CCSC1=C(C#N)C(c2ccc(OCc3ccccc3)cc2)C2=C(CCCC2=O)N1 (stereo not drawn)

Quoted at random: 3 compounds from above.
S aureus helic	MgrA DNA FP	canonical_smiles
3.0	5.0	Cc1ccc(SCC(=O)NC2CCCCC2C)cc1 (stereo not drawn)
-25.0	.	CCCN(CCC)C(=O)Cn1c(=O)n(CCCCC(=O)Nc2ccc(OC)cc2)c(=O)c2ccccc21
-15.0	.	O=C(CSc1nccn1-c1ccccc1)NO

(continued)
S aureus helic	MgrA DNA FP	canonical_smiles
-7.0	.	O=C(C1CN(CC(=O)N2CCNC2=O)c2ccccc2O1)N1CCOCC1 (stereo not drawn)
1.0	-0.3	CC(C)CN(CC(C)C)C(=O)NCc1noc2ccccc12
8.0	.	Cc1[nH]n(-c2cccc(Cl)c2)c(=O)c1C=NC1CCS(=O)(=O)C1 (stereo not drawn)
-8.0	.	Cc1ccc(S(=O)(=O)N(CC(=O)NC2CCCCC2)Cc2ccco2)cc1C
6.0	-0.2	O=C(CC=Nc1ccccc1)c1ccccc1
8.0	0.1	CC(C)CCNC(=O)c1ccc(N(C)S(C)(=O)=O)cc1
15.0	-0.9	Cc1cc2cc(CNC(=O)CCC3CCCCC3)ccc2n1C
-19.0	2.9	O=C(NCc1ccc(-c2nc3ncccc3o2)cc1)c1ccc(Cl)cc1
5.0	.	Cc1ccc(Nc2nn(CCC(=O)O)c(=S)n2-c2ccc(C)cc2)cc1
-1.0	.	O=C1NC(=O)/C(=C\c2cn(Cc3ccccc3)nc2-c2cccnc2)S1
.	-0.1	CC1(C)CCc2cc(S(=O)(=O)N(Cc3ccccn3)Cc3ccccn3)ccc2O1
-11.0	.	NC(=O)c1cc(NS(=O)(=O)/C=C/c2ccccc2)cc(C(N)=O)c1
3.0	2.6	NC(=O)c1sc2nc3c(cc2c1N)CCCCC3
.	-1.2	COc1ccc(C2=NN3C(C2)c2cc(Cl)ccc2OC3c2ccc([N+](=O)[O-])cc2)cc1OC (stereo not drawn)
.	1.1	O=C(NCCN1CCN(c2nccc(C(F)(F)F)n2)CC1)c1cccs1
.	2.4	COc1cc(/C=N/NC(N)=S)cc(OC)c1OC
0.0	.	CC(=O)Nc1ccc(S(=O)(=O)N2CCC3(CC2)OCCO3)cc1
3.0	.	OC1CCCN(CC(O)c2ccccc2)C1 (stereo not drawn)
29.0*	.	CCC1CCCCN1C(=O)Cn1cc(S(=O)(=O)N(C)C)ccc1=O (stereo not drawn)
-17.0	2.0	COc1ccc(C2C(C(=O)N3CCCC3)c3cc(OC)c(OC)cc3C(=O)N2C)cc1 (stereo not drawn)
-1.0	0.2	CCCn1cnc2sc(C(N)=O)c(C)c2c1=O
4.0	-2.4	CCc1c(C)c(C#N)c2nc3ccccc3n2c1-n1nc(C)cc1C
-5.0	.	CC(C)(C)NC(=O)CSc1nnc(C(F)(F)F)n1N
-12.0	.	COC(=O)CSc1nc2c(cnn2-c2ccccc2)c(=O)[nH]1
1.0	.	COc1ccc(OCc2nnc(SCC(=O)N(C)c3ccccc3)n2Cc2ccco2)cc1
4.0	.	Cc1ccc2nc(NC(=O)CC3Oc4ccccc4NC3=O)sc2c1 (stereo not drawn)
3.0	.	CCCCC(=O)n1c(=O)oc2ccc(C)cc21
-3.0	1.2	O=C(NCc1ccc(Cl)cc1)C1(NS(=O)(=O)c2cccc3cccnc23)CCCCC1
-10.0	.	COC(=O)c1ccc(CNC(=O)CNc2cc(C(F)(F)F)ccc2N2CCOCC2)cc1
-2.0	1.1	C=CCON1C(=O)C2C3C=CC(O3)C2C1=O (stereo not drawn)
6.0	-0.6	Cc1cc(Cl)nc(C)n1
-12.0	.	CCSc1nc2c([nH]c3ccccc32)c(=O)n1-c1ccccc1
8.0	-0.2	COCc1cc(C)n(CC(=O)Nc2cc(Cl)ccc2OC)c(=O)c1C#N
11.0	.	Cc1sc(NC(=O)C2=NNC(=O)CC2)nc1-c1ccc(F)cc1
1.0&0.0	29.2	S=c1[nH]ncn1-c1ccccc1
6.0	.	CC1(C)C2CC=C(C3N=C(N)Nc4nc5ccccc5n43)C1C2 (stereo not drawn)
.	-1.2	CCc1nnc(NS(=O)(=O)c2ccc(NC(=O)c3cc4ccccc4oc3=O)cc2)s1
13.0	.	Brc1cc(I)ccn1
1.0	.	Brc1ccccc1NC1=NCCC1
.	-1.3	S=C(NCc1cccs1)NC1CC1
7.0	0.2	C=CCN(CC=C)C(=O)CSc1nnc2c3ccccc3n(C)c2n1
7.0	.	CSCCC1COC(c2cccs2)=N1 (stereo not drawn)
.	-0.9	Cc1onc(-c2ccccc2)c1C(=O)/C=C/N(C)C
-6.0	.	COc1ccc(OC)c(-c2csc(NC(=O)C3=NN(C)C(=O)CC3)n2)c1
4.0	.	O=S(=O)(c1ccccc1)N1CCn2c(nc3ccccc32)C1
.	0.2	O=c1c2cc(-c3ccccc3)sc2ncn1/N=C/c1cccs1
.	0.4	Nc1nc2c(c(C(F)(F)F)n1)CCc1ccccc1-2
14.0	.	CC(=O)N1CCc2cc(S(=O)(=O)CCC(=O)NCc3ccccc3)ccc21
-5.0	-0.5	Cc1cccc(-c2nc3n(n2)C(=O)CC(c2ccc(F)cc2)S3)c1 (stereo not drawn)
14.0	.	Cc1ccc(C(=O)C2CC2)cc1
10.0	.	CC1CCC2(CC1)c1cnn(C(C)C)c1N=C(c1ccc(F)cc1)N2C (stereo not drawn)
-1.0	-1.6	Cc1ccc2onc(CNC(=O)N(C)C3CCCCC3)c2c1
14.0	3.6	Cc1ccc(NC(=O)CCc2nnc3ccc(N4CCN(C5CCCCC5)CC4)nn23)cc1C
13.0	-1.4	COC(=O)c1ccc(NC(=S)NC(=O)N2CCOCC2)cc1
-16.0	.	CC(C)c1ccc(CN2C(=O)c3ccccc3C2=O)cc1
.	2.6	Oc1ccccc1/C=N/c1nccs1
3.0	.	O=C(/C=C/c1ccc2ccccc2n1)N1CCN(c2ccccc2)CC1
3.0	.	c1cc2nsnc2c2c1Nc1nc3nonc3nc1N2
16.0	.	CCCn1c(=O)c2c(nc3oc(-c4ccccc4)cn32)n(C)c1=O
.	-0.7	CC(C)(C)c1ccc(Oc2cnn(-c3ccccc3)c(=O)c2Cl)cc1

Complete entries as entered above. Order of values: S aureus helic, MgrA DNA FP
`O=c1c2cc(-c3ccccc3)sc2ncn1/N=C/c1cccs1` is entered as ., 0.2
`COC(=O)c1ccc(NC(=S)NC(=O)N2CCOCC2)cc1` is entered as 13.0, -1.4
`O=S(=O)(c1ccccc1)N1CCn2c(nc3ccccc32)C1` is entered as 4.0, .

Sorted by number of heavy atoms (lowest first): part of the list above
S aureus helic	MgrA DNA FP	canonical_smiles
14.0	.	Cc1ccc(C(=O)C2CC2)cc1
-16.0	.	CC(C)c1ccc(CN2C(=O)c3ccccc3C2=O)cc1
.	0.2	O=c1c2cc(-c3ccccc3)sc2ncn1/N=C/c1cccs1

Carrying on.
S aureus helic	MgrA DNA FP	canonical_smiles
-3.0	2.5	CC1(C)CC(=O)C/C(=N\NC(=O)CCc2ccccc2)C1
13.0	1.1	Clc1ccccc1OCCn1cnc2ccccc21
.	-0.1	Nc1nc(-c2ccccc2)cc(C(F)(F)F)n1
7.0	-1.1	CCc1cccc(NC(=O)Cn2c(C(=O)OC)cc3ccsc32)c1
.	0.8	Cc1ccc(NC(=O)c2sc3nc(C(F)(F)F)nn3c2C)cc1
6.0	.	Cc1ccc2oc(=O)c3cnn(CC(=O)NCCCN4CCc5ccccc5C4)c3c2c1
33.0	.	CC(C)CC(NC1CCS(=O)(=O)C1)C(=O)O (stereo not drawn)
.	-0.2	COc1ccc(S(=O)(=O)NCc2c(F)cccc2Cl)cc1OC
31.0	.	Cc1cc(C)n2cc(CN(C)Cc3ccccc3)nc2n1
-4.0	.	O=c1c2ccccc2c(C=NCCCn2ccnc2)c(O)n1-c1ccccn1
-11.0	.	COc1cc(NC(=O)Cn2cnc3ccc(S(=O)(=O)N4CCC(C)CC4)cc3c2=O)cc(OC)c1OC
.	0.9	CCCCc1ccc(-c2csc(N)n2)cc1
8.0	.	O=C(COC(=O)Cn1[nH]c(=O)c2ccccc2c1=O)Nc1ccc2c(c1)OCO2
-5.0	2.1	c1ccc(-c2nc(SCC3COc4ccccc4O3)oc2-c2ccccc2)cc1 (stereo not drawn)
-25.0	.	CCOC(=O)C1C(=O)Nc2nc3ccccc3n2C1C(C)C (stereo not drawn)
.	-3.2	CNC(=O)c1ccccc1Sc1ccc(OC)cc1C(=O)NC
12.0	.	CC(=O)Nc1cccc(Oc2nc(C)nc3sc4c(c23)CCC4)c1
.	-0.2	CC12CC3(C)CC(C)(C1)CC(CCO)(C2)C3
23.0	.	O=C1c2oc3ccccc3c(=O)c2C(c2cccs2)N1c1nccs1 (stereo not drawn)
-2.0	.	CC(c1nnc(SCC(=O)N(CC#N)c2ccccc2)n1-c1ccc(F)cc1)N1CCCCC1 (stereo not drawn)
-11.0	1.2	CCc1ccc(NC(=O)CCc2nc3ccccc3[nH]2)cc1
.	1.7	Cc1noc(C)c1C(=O)Nc1ccc(-n2ccc(C(F)(F)F)n2)cc1
-3.0	.	CCCN1C(=O)C2(c3ccccc31)c1c(oc3cc(C)c(C)cc3c1=O)C(=O)N2CCO (stereo not drawn)

Entries shown so far that contain a furan ring, fused or not, in the order listed:
S aureus helic	MgrA DNA FP	canonical_smiles
-7.0	.	CC1CCCCN1C(=O)C1=CC(c2ccco2)=NS(=O)(=O)N1C (stereo not drawn)
-8.0	.	Cc1ccc(S(=O)(=O)N(CC(=O)NC2CCCCC2)Cc2ccco2)cc1C
1.0	.	COc1ccc(OCc2nnc(SCC(=O)N(C)c3ccccc3)n2Cc2ccco2)cc1

Screening results: PubChem BioAssay, ICCB-Longwood Screening Facility, Harvard Medical School

Only part of the results is shown. The share of hits here may be higher or lower than overall.
